# High-throughput results from PubChem.
# Env fusion inh: inhibitors of HIV Env-mediated cell fusion; AID 651610; actives 1.1% (n = 360,000); inhibition, % at 12.3 µM; HeLa-JRFL Env/CEM21 cell fusion, luciferase;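 active means mean replicate inhibition score of at least 50 and every replicate individually at or above 50; inconclusive means only one of the two criteria met; inactive means mean below 50 and not all replicates reaching 50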;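 further: 0% = plate neutral controls and 100% = maraviroc near 300 nM; one replicate is shown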
# Yeast UUG start: yeast start codon fidelity modulation; S. cerevisiae UUG-firefly luciferase reporter, luminescence/redox ratio; activity score, % at 18.7 µM; actives 0.13% (n = 350,000); AID 602363;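 active means replicate mean at a twofold rise or more, about +100% in these data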;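 further: firefly luciferase made from a UUG start codon reports start codon fidelity; reporter light over untreated wells divided by growth signal over untreated wells; some hits fall short of that in this replicate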
# Numbers without * were called inactive; u = inconclusive; [ ] = dose if it differs, or a comment. Not all compounds are listed; the hit share may differ from the screen's.
# Start of the listing, in advance (three entries):
SMILES,Env fusion inh,Yeast UUG start
C[C@H](CO)N1C[C@H](C)[C@@H](CN(C)S(=O)(=O)c2ccccc2)Oc2ncc(C#CC3(O)CCCC3)cc2C1=O,-16[16.7 µM],-4
C[C@@H]1CCCCO[C@@H](CN(C)C(=O)NC2CCCCC2)[C@H](C)CN([C@@H](C)CO)C(=O)c2cc(NC(=O)c3ccncc3)ccc2O1,-12[16.7 µM],17
COc1cccc(S(=O)(=O)N[C@H]2CC[C@@H](CCn3cc(-c4ccccn4)nn3)O[C@@H]2CO)c1,-1[16.7 µM],-21

# Main list, from the first entry:
SMILES,Env fusion inh,Yeast UUG start
C[C@H](CO)N1C[C@H](C)[C@@H](CN(C)S(=O)(=O)c2ccccc2)Oc2ncc(C#CC3(O)CCCC3)cc2C1=O,-16[16.7 µM],-4
C[C@@H]1CCCCO[C@@H](CN(C)C(=O)NC2CCCCC2)[C@H](C)CN([C@@H](C)CO)C(=O)c2cc(NC(=O)c3ccncc3)ccc2O1,-12[16.7 µM],17
COc1cccc(S(=O)(=O)N[C@H]2CC[C@@H](CCn3cc(-c4ccccn4)nn3)O[C@@H]2CO)c1,-1[16.7 µM],-21
Cc1noc(C)c1NC(=O)Nc1ccc2c(c1)CC(=O)N([C@@H](C)CO)C[C@H](C)[C@H](CN(C)C(=O)NC(C)C)O2,-4[16.7 µM],-12
CCNC(=O)C[C@H]1CC[C@@H]2[C@H](COc3ccc(NC(=O)Nc4cccc(Cl)c4)cc3C(=O)N2C)O1,16[16.7 µM],-13
C[C@@H]1CCCCO[C@H](CN(C)Cc2ccc(C(F)(F)F)cc2)[C@@H](C)CN([C@H](C)CO)C(=O)c2cc(NC(=O)Nc3ccc4c(c3)OCO4)ccc2O1,-1[16.7 µM],-7
COCC(=O)N(C)C[C@H]1Oc2ncc(-c3ccc(C#N)cc3)cc2C(=O)N([C@@H](C)CO)C[C@H]1C,-18[16.7 µM],-6
C[C@@H]1CCCCO[C@@H](CN(C)C(=O)Nc2cccc3ccccc23)[C@H](C)CN([C@H](C)CO)C(=O)c2cc(NC(=O)C3CCCCC3)ccc2O1,-16[16.7 µM],-5
C[C@@H]1CN([C@H](C)CO)C(=O)c2cc(NC(=O)Cc3ccccc3)ccc2O[C@H]1CN(C)Cc1ccc(-c2ccccc2)cc1,13[16.7 µM],-2
CO[C@@H]1CN(C)C(=O)c2cc(NC(=O)Nc3ccccc3)ccc2OC[C@H](C)NC[C@@H]1C,1[16.7 µM],-9
Cc1ccc(S(=O)(=O)N(C)C[C@@H]2OCCCC[C@@H](C)Oc3ccc(NC(=O)Nc4cccc5ccccc45)cc3C(=O)N([C@H](C)CO)C[C@@H]2C)cc1,0[16.7 µM],-6
C[C@@H]1CCCCO[C@H](CN(C)Cc2ccc(C(F)(F)F)cc2)[C@H](C)CN([C@H](C)CO)C(=O)c2cc(NS(=O)(=O)c3ccc(F)cc3)ccc2O1,26[16.7 µM],21
COc1ccc(CN(C)C[C@H]2OCCCC[C@@H](C)Oc3ccc(NC(=O)Cc4ccccc4)cc3C(=O)N([C@H](C)CO)C[C@@H]2C)cc1,-28[16.7 µM],7
C[C@H]1CN([C@@H](C)CO)C(=O)c2cc(C#CC3CCCCC3)cnc2O[C@@H]1CN(C)C,13[16.7 µM],10
CCCN(C)C[C@@H]1OCCCC[C@@H](C)Oc2ccc(NS(=O)(=O)c3ccc(F)cc3)cc2C(=O)N([C@H](C)CO)C[C@@H]1C,8[16.7 µM],-4
C[C@H]1CN([C@@H](C)CO)S(=O)(=O)c2ccc(-c3cccnc3)cc2O[C@H]1CN(C)C,17[16.7 µM],0
COCC#Cc1cnc2c(c1)C(=O)N([C@H](C)CO)C[C@H](C)[C@H](CN(C)C(=O)Nc1ccccc1F)O2,-4[16.7 µM],21
O=C(Cc1cccnc1)N[C@H]1CC[C@H](CCn2cc(-c3ccccc3F)nn2)O[C@@H]1CO,25[16.7 µM],-14
C[C@@H]1CN([C@@H](C)CO)C(=O)c2cc(C#Cc3cccnc3)cnc2O[C@@H]1CN(C)Cc1ccncc1,5[16.7 µM],-15
CCS(=O)(=O)Nc1ccc2c(c1)C(=O)N(C)C[C@H](OC)[C@@H](C)CN[C@@H](C)CO2,-12[16.7 µM],-21
C[C@H](CO)N1C[C@H](C)[C@H](CN(C)C(=O)c2ccccc2F)Oc2ncc(C#Cc3ccc(F)cc3)cc2C1=O,-9[16.7 µM],0
C[C@H]1ON(c2ccccc2)[C@@H](c2ccccc2)[C@@H]1C(=O)N1C(=O)OC[C@@H]1c1ccccc1,8[16.7 µM],-16
C[C@@H]1CN([C@H](C)CO)C(=O)c2cc(/C=C/c3ccccc3)cnc2O[C@H]1CN(C)C(=O)c1ccccc1,12[16.7 µM],-4
C[C@@H]1CN([C@@H](C)CO)C(=O)Cc2cc(NC(=O)NC3CCCCC3)ccc2O[C@@H]1CN(C)C(=O)NC1CCCCC1,-1[16.7 µM],-6
C[C@@H]1CN([C@@H](C)CO)C(=O)Cc2cc(NC(=O)C3CCCCC3)ccc2O[C@H]1CN(C)Cc1ccc(C(F)(F)F)cc1,19[16.7 µM],10
C[C@@H]1CN([C@H](C)CO)C(=O)c2cc(-c3ccc(C#N)cc3)cnc2O[C@@H]1CN(C)CC1CC1,8[16.7 µM],0
COc1ccc(S(=O)(=O)N(C)C[C@H]2OCCCC[C@@H](C)Oc3ccc(NC(=O)NC(C)C)cc3C(=O)N([C@H](C)CO)C[C@@H]2C)cc1,-49[16.7 µM],21
O=C(N[C@@H]1CC[C@@H](CCn2cc(C3CCCCC3)nn2)O[C@H]1CO)c1cccnc1,-6[16.7 µM],0
COc1ccc(CN(C)C[C@H]2OCCCC[C@@H](C)Oc3ccc(NC(=O)Nc4ccc5c(c4)OCO5)cc3C(=O)N([C@@H](C)CO)C[C@H]2C)cc1,-3[16.7 µM],30
C[C@@H]1CN([C@@H](C)CO)C(=O)Cc2cc(NC(=O)C3CC3)ccc2O[C@@H]1CN(C)Cc1ccc(C(F)(F)F)cc1,12[16.7 µM],24
N#C[C@@H]1[C@H](c2ccc(C#CC3CCCC3)cc2)[C@@H](CO)N1C(=O)Nc1ccc(F)cc1,-27[16.7 µM],-13
C[C@@H]1CN([C@@H](C)CO)C(=O)c2cccc(NC(=O)NC3CCCCC3)c2O[C@H]1CN(C)C(=O)Nc1ccc(F)cc1,2[16.7 µM],-4
Cc1noc(C)c1S(=O)(=O)N(C)C[C@H]1OCCCC[C@@H](C)Oc2ccc(NC(=O)c3ccccc3)cc2C(=O)N([C@@H](C)CO)C[C@@H]1C,-55[16.7 µM],9
CC12N=C3SCc4ccccc4CN3[C@H](c3ccccc3O1)[C@H]2CO[Si](C)(C)C(C)(C)C,2[16.7 µM],-14
CCNC(=O)C[C@@H]1CC[C@H]2[C@@H](COc3ccc(NC(=O)Nc4cccc(OC)c4)cc3C(=O)N2C)O1,-7[16.7 µM],8
CN(C)CC(=O)Nc1ccc2c(c1)[C@H]1C[C@H](CC(=O)NC3CCCC3)O[C@@H](CO)[C@H]1O2,4[16.7 µM],-8
C[C@@H]1CN([C@H](C)CO)S(=O)(=O)c2ccc(C#CCN(C)C)cc2O[C@H]1CN(C)C(=O)c1ccccc1F,27[16.7 µM],1
COc1ccc(NC(=O)N[C@H]2CC[C@@H](CCNS(=O)(=O)c3ccccc3F)O[C@H]2CO)cc1,12[16.7 µM],1
C[C@H](CO)N1C[C@H](C)[C@H](CN(C)Cc2ccc(-c3ccccc3)cc2)Oc2ccc(NC(=O)Nc3ccc(F)cc3)cc2C1=O,4[16.7 µM],3
C[C@H](CO)N1C[C@H](C)[C@@H](CN(C)C(=O)c2cccc(F)c2)Oc2ncc(-c3ccncc3)cc2C1=O,-16[16.7 µM],3

# In another format: results already given
mol | Env fusion inh | Yeast UUG start
C[C@@H]1CCCCO[C@@H](CN(C)C(=O)Nc2cccc3ccccc23)[C@H](C)CN([C@H](C)CO)C(=O)c2cc(NC(=O)C3CCCCC3)ccc2O1 | -16[16.7 µM] | -5
CCCN(C)C[C@@H]1OCCCC[C@@H](C)Oc2ccc(NS(=O)(=O)c3ccc(F)cc3)cc2C(=O)N([C@H](C)CO)C[C@@H]1C | 8[16.7 µM] | -4
C[C@H](CO)N1C[C@H](C)[C@@H](CN(C)S(=O)(=O)c2ccccc2)Oc2ncc(C#CC3(O)CCCC3)cc2C1=O | -16[16.7 µM] | -4
C[C@H](CO)N1C[C@H](C)[C@H](CN(C)C(=O)c2ccccc2F)Oc2ncc(C#Cc3ccc(F)cc3)cc2C1=O | -9[16.7 µM] | 0
CCNC(=O)C[C@@H]1CC[C@H]2[C@@H](COc3ccc(NC(=O)Nc4cccc(OC)c4)cc3C(=O)N2C)O1 | -7[16.7 µM] | 8

# Next section
SMILES,Env fusion inh,Yeast UUG start
C[C@@H]1CN([C@H](C)CO)C(=O)c2cc(NC(=O)Nc3ccc4c(c3)OCO4)ccc2O[C@@H](C)CCCCO[C@@H]1CN(C)C(=O)Cc1ccccc1,6[16.7 µM],-18
C[C@H](CO)N1C[C@H](C)[C@H](CN(C)S(=O)(=O)c2ccc(Cl)cc2)OCCCC[C@H](C)Oc2ccc(NS(=O)(=O)c3cccs3)cc2C1=O,-155[16.7 µM],8
COc1ccc(-c2cnc3c(c2)C(=O)N([C@H](C)CO)C[C@H](C)[C@H](CN(C)C(=O)Cc2ccccc2)O3)cc1,21[16.7 µM],-2
Cc1noc(C)c1NC(=O)N(C)C[C@H]1OCCCC[C@H](C)Oc2ccc(NS(=O)(=O)c3cn(C)cn3)cc2C(=O)N([C@@H](C)CO)C[C@H]1C,-18[16.7 µM],4
CNC(=O)C[C@@H]1CC[C@H]2[C@H](COc3ccc(NS(=O)(=O)c4ccc(F)cc4)cc3C(=O)N2C)O1,15[16.7 µM],5
CC(C)NC(=O)N(C)C[C@H]1OCCCC[C@@H](C)Oc2ccc(NS(=O)(=O)c3ccccc3)cc2C(=O)N([C@H](C)CO)C[C@H]1C,5[16.7 µM],-4
O=C(N[C@@H]1CC[C@@H](CCNS(=O)(=O)c2ccccc2Cl)O[C@@H]1CO)c1ccccc1,2[16.7 µM],3
O=C(C[C@@H]1C[C@@H]2c3cc(NC(=O)c4ccc5c(c4)OCO5)ccc3O[C@@H]2[C@H](CO)O1)NCc1cccc(F)c1,0[16.7 µM],-13
COc1cccc(-c2cnc3c(c2)C(=O)N([C@@H](C)CO)C[C@@H](C)[C@@H](CN(C)C(C)=O)O3)c1,-23[16.7 µM],0
C[C@@H]1CN([C@@H](C)CO)C(=O)c2cc(NC(=O)Nc3cccc4ccccc34)ccc2O[C@@H](C)CCCCO[C@@H]1CN(C)S(=O)(=O)c1ccc(Cl)cc1,25[16.7 µM],-8
C[C@@H]1CN([C@@H](C)CO)C(=O)c2cc(-c3cccc(F)c3)cnc2O[C@H]1CN(C)C(=O)Nc1ccccc1F,32[16.7 µM],-2
NCC[C@@H]1CC[C@@H](NC(=O)C2CCCCC2)[C@H](CO)O1,-7[16.7 µM],21
C[C@@H]1CN([C@@H](C)CO)C(=O)Cc2cc(NS(=O)(=O)c3cn(C)cn3)ccc2O[C@@H]1CN(C)Cc1ccc(C(=O)O)cc1,30[16.7 µM],-20
CC(=O)N(C)C[C@@H]1Oc2ncc(C#C[C@@H](C)O)cc2C(=O)N([C@@H](C)CO)C[C@H]1C,-27[16.7 µM],2
O=C(C[C@H]1CC[C@@H](NC(=O)Nc2cc(F)ccc2F)[C@@H](CO)O1)Nc1ccccc1,-9[16.7 µM],-7
CCCC#Cc1ccc2c(c1)O[C@H](CN(C)C(=O)NC(C)C)[C@@H](C)CN([C@H](C)CO)S2(=O)=O,3[16.7 µM],15
Cc1noc(C)c1NC(=O)Nc1ccc2c(c1)CC(=O)N([C@H](C)CO)C[C@H](C)[C@@H](CN(C)C(=O)NC(C)C)O2,10[16.7 µM],13
C[C@@H]1CN([C@H](C)CO)C(=O)c2cc(C#Cc3cccc(F)c3)cnc2O[C@@H]1CN(C)C(=O)c1ccccc1F,21[16.7 µM],-3
CC(C)CNC(=O)[C@@]1(c2ccc([N+](=O)[O-])cc2)CC(=O)N(CC23CC4CC(CC(C4)C2)C3)[C@@H]1c1ccc(CO)cc1,18[16.7 µM],2
CC(C)NC(=O)N[C@@H]1CC[C@H](CCNC(=O)C2CCCC2)O[C@H]1CO,-15[16.7 µM],-7
COc1ccc(S(=O)(=O)Nc2ccc3c(c2)C(=O)N([C@H](C)CO)C[C@H](C)[C@@H](CN(C)S(=O)(=O)c2cccs2)OCCCC[C@H](C)O3)cc1,25[16.7 µM],6
C[C@H](CO)N1C[C@H](C)[C@H](CN(C)S(=O)(=O)c2cn(C)cn2)Oc2ccc(NC(=O)CCN3CCOCC3)cc2CC1=O,7[16.7 µM],1
Cc1ccc(S(=O)(=O)Nc2ccc3c(c2)C(=O)N([C@H](C)CO)C[C@@H](C)[C@@H](CN(C)S(=O)(=O)c2cccs2)OCCCC[C@H](C)O3)cc1,-21[16.7 µM],-9
COc1ccc(S(=O)(=O)N2C[C@@H](O)COC[C@@H]3O[C@H](CC(=O)N(C)C)CC[C@H]32)cc1,12[16.7 µM],-11
COc1ccc(S(=O)(=O)Nc2ccc3c(c2)C(=O)N([C@@H](C)CO)C[C@H](C)[C@H](CN(C)S(=O)(=O)c2ccc(Cl)cc2)O3)cc1,39[16.7 µM],-2
C[C@@H]1CN([C@H](C)CO)C(=O)c2cc(NS(=O)(=O)c3ccc(F)cc3)ccc2O[C@H]1CN(C)C(=O)Nc1ccc2c(c1)OCO2,-13[16.7 µM],-2
C[C@H](CO)N1C[C@H](C)[C@H](CN(C)S(=O)(=O)c2cn(C)cn2)Oc2ncc(-c3cccc(F)c3)cc2C1=O,18[16.7 µM],23
Cc1ccc(S(=O)(=O)N(C)C[C@@H]2Oc3cc(C4=CCCC4)ccc3S(=O)(=O)N([C@H](C)CO)C[C@H]2C)cc1,40[16.7 µM],-14
C[C@H](CO)N1C[C@H](C)[C@H](CN(C)C(=O)Nc2ccc(C(F)(F)F)cc2)OCCCC[C@H](C)Oc2ccc(NC(=O)Nc3ccc(C(F)(F)F)cc3)cc2C1=O,u,-14
